AmpC nodet inh: AmpC beta-lactamase inhibition, detergent-free assay; P00811; AmpC nitrocefin hydrolysis, absorbance 480 nm, no detergent; potencies from a single point are estimates; Potency, µM (top dose mostly 28.7 µM), for inactives: top-dose activity change, negative = inhibition; hit rate 1.8% among 71,000; active = falling curve, for most hits resting on a single point; inconclusive = weak or doubtful change; inactive = flat or rising curve; note: % of control where 0% means no effect; about half of the hits show no inhibition at the top dose; a quarter of the inactives give rising signals
Target sequence (P00811 whole entry, looked up): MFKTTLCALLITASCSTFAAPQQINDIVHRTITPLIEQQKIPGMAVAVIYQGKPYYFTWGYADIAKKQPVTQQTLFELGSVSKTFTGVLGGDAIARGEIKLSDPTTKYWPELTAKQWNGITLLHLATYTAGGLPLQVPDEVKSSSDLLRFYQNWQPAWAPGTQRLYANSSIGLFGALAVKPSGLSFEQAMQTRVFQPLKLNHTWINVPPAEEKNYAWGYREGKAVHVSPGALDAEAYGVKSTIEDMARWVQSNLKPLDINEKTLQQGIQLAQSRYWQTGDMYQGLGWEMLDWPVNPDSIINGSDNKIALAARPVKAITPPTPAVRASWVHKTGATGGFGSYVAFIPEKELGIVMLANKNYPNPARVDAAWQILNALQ
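Enzyme, pH 7.0 phosphate. Compound titrations were pre-incubated with AmpC for 15 min at room temperature before nitrocefin (stock 800 uM) addition; product formation was recorded at 480 nm every 20 s for 4 min.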
Starred values were filed as active, the others as inactive; ? = inconclusive; [ ] = dose if it differs, or a comment. Potency is the fitted concentration of half-maximal effect. Not all compounds are listed; rates above refer to the full screens.

SMILES	AmpC nodet inh
Cc1ccc(N2C(=O)[C@@H]3[C@H](C2=O)C2c4ccccc4C=CN2[C@@H]3C(=O)c2ccco2)cc1 (some centres undefined)	18%
Nc1nc(-c2ccccc2)c(CC(=O)O)s1	-5%[5.75 µM]
COC(=O)c1ccccc1NC(=O)c1c(O)c2cccc3c2n(c1=O)CCC3	42%
CCOC(=O)CC(=O)CSc1ncc(C(=O)OCC)c(N)n1	9%
Cn1ccnc1C(O)c1ccco1 (centres undefined)	6%
COC(=O)CN1CCN(C(=O)c2ccc(F)cc2)c2ccccc2C1	22%
COc1ccccc1CC(=O)N1CCCC1	-1%
CS(=O)(=O)NCc1ccc(C(=O)NCc2ccccc2)cc1	11%
Cc1cc(NC(=O)C(C)C)ncc1NC(=O)Cc1ccccc1	-5%
COC(=O)c1c(NC(=O)CN2CCN(Cc3ccc4c(c3)OCO4)CC2)sc(C)c1C	130%
O=C(CN1CCOCC1)OCCCc1ccccc1	-5%
CCC(CO)N=CC1=C(O)C(C(=O)c2ccccc2)CCC1=O (centres undefined)	10%
CCc1cc(=O)oc2cc3oc(C)c(C)c3cc12	9%
O=C(CN1CCN(Cc2ccccc2)CC1)NC(=O)NCc1ccco1	13%
CC(=O)c1c(C)cc(C)c(CSc2nnc(-c3ccco3)o2)c1C	48%
O=C(CCc1nc(-c2ccccc2F)no1)NCCN1CCOCC1	-8%
Cc1ccc2c(c1)N(CCC(=O)NCc1ccco1)C(=O)CO2	-1%
C=CCc1c(C)nc(SC(C)C)[nH]c1=O	12%
Cc1cc(C)n(Cc2ccc(C(=O)O)o2)n1	-18%
Cc1cc(C)n(Cc2ccc(C(=O)NCc3ccco3)o2)n1	4%
C[C@@]12C[C@H](O)[C@@H]3[C@H](CCC4=CC(=O)CC[C@]43C)[C@H]1CC[C@@H]2c1csc(N)n1	43%[5.75 µM]
Cc1ccc(P(=S)(c2ccc(C)o2)N2CCOCC2)o1	22%
COCCNc1cc(C)nc2c3c(C)cc(C)nc3nn12	56%
N[C@@H](Cc1ncccn1)C(=O)O	-11%[5.75 µM]
O=S(=O)(c1ccc(F)cc1)c1nc(-c2ccc(F)cc2)oc1NCCN1CCOCC1	107%
(further entries)
SMILES	AmpC nodet inh
CCN(CC)c1ccc(-c2nc3cnccc3n2C)cc1	26%
COCCn1c(=O)[nH]c2cc(C(=O)NCCN3CCN(c4ccccc4)CC3)ccc2c1=O	43%
Cc1ccc(S(=O)(=O)N(C)CC(=O)N2CCN(C(=O)c3ccco3)CC2)cc1	25%
CN(C)C(=O)c1ccc(-c2nc(-n3ccnc3)c3ccccc3n2)cc1	20%
Cc1ccc(Cl)cc1N1CCN(Cc2nnnn2Cc2ccco2)CC1	73%
c1ccc(-c2csc3nnc(SCc4ccc5c(c4)OCO5)n23)cc1	-9%
CC1CCc2nn(CC(=O)N3CCCCCC3)cc2C1 (centres undefined)	0%
Cn1cc(-c2nc3cnc(OCc4ccccc4)nc3n(CCC#N)c2=O)c2ccccc21	0%
Cc1nc(N2CCOCC2)c2cc(-c3ccccc3)sc2n1	120%
O=C(CNS(=O)(=O)c1ccc(C(=O)N2CCOCC2)cc1)N1CCOCC1	-2%
CCC1(c2ccccc2)C(=O)NCNC1=O	-3%
O=C(C[C@H](c1ccccc1)c1c(O)c2ccccc2oc1=O)c1ccccc1	-1%[5.75 µM]
Cc1oc(-c2ccc(Cl)cc2)nc1CS(=O)CC(=O)NCCN1CCCC1 (centres undefined)	4µM*[single pt active]
COc1ccc(Oc2nc(C)cc(C)c2C#N)cc1	-5%
COCCNc1ccnc(-c2cccc(NS(C)(=O)=O)c2)n1	8%
O=C1C=C(N2CCN(c3ccccn3)CC2)C(=O)c2c(O)ccc(O)c21	7%[5.75 µM]
CC(CN1CCNCC1)(NS(=O)(=O)c1ccccc1)c1ccccc1 (centres undefined)	38%
COc1cccc(-c2nc(Cc3ccc(OC)c(OC)c3)no2)c1	102%
COc1ccc(C2=NO[C@@H]3C(=O)N(C4CCCCC4)C(=O)[C@H]23)cc1OC	32%
O=S(=O)(O)c1cc(S(=O)(=O)O)c2c(N=Nc3cccc4ccccc34)c(O)ccc2c1	-14%[5.75 µM]
Cc1nc(SCC(=O)Nc2ccccc2)c2oc3ccccc3c2n1	-5%
CCOC(=O)c1c(C)c(C(=O)NCCCOC(C)C)c(C)n1C	35%
COc1ccccc1CN(CC(=O)NCc1ccco1)C(=O)CNS(=O)(=O)c1ccccc1	28%
CCOC(=O)c1c(C)nc2c(c1C)/C(=N/O)CC(C)(C)C2	1%
O=C(NCc1ccccc1)c1ccc(F)c(S(=O)(=O)N2CCOCC2)c1	4%
Next section.
SMILES	AmpC nodet inh
O=C(NCCc1ccccc1)C1CCCN1C(=O)NCc1ccccc1 (centres undefined)	-6%
COc1ccc(OC)c(N(CC(=O)NC2CC2)S(=O)(=O)c2ccc(C)cc2)c1	72%
CNC(=O)c1ccc(N(Cc2ccccc2)S(C)(=O)=O)cc1	7%
CC(C)N(Cc1nnc(-c2ccccc2Cl)o1)C(=O)c1cccc(C#N)c1	48%
O=C(OC(C(=O)NCC1CCCO1)c1ccc(F)cc1)c1ccco1 (centres undefined)	6%
CN(C(=O)c1cc2n(n1)C(C(F)(F)F)CC(c1ccco1)N2)c1ccc(OC(F)(F)F)cc1 (centres undefined)	74%
Cc1cc([N+](=O)[O-])ccc1N	-2%
COCCCNC(=O)CCc1nc(-c2ccccc2Cl)no1	10%
O=C(CCn1c(=S)[nH]c2cc3c(cc2c1=O)OCO3)NCCN1CCCC1	-8%
COC(=O)c1ccccc1NC(=O)CSc1nnc(C(CO)NC(=O)c2ccccc2)n1C (centres undefined)	28%
COc1ccc(CNc2nc(-c3cccnc3)nn2C(=O)c2ccco2)cc1	114%
CC(=O)N1CCCc2cc(S(=O)(=O)NCc3ccc(C)cc3)ccc21	21%
Cc1nc2c(c(=O)n1CCC(C)C)c1nc3ccccc3nc1n2Cc1ccc2c(c1)OCO2	30%
COc1ccccc1N1CCN(C(=O)C(C)N(c2ccc(C)cc2)S(C)(=O)=O)CC1 (centres undefined)	102%
C/C=C/Cn1c(SCCCc2ccccc2)nc2c1c(=O)[nH]c(=O)n2C	50%
Cc1nc2ccccc2c2oc(C(=O)N3CCc4ccccc43)cc12	-4%
COc1ccc(NC(=O)N2CCN(c3nc(-c4cccc(OC)c4)cs3)CC2)cc1	9%
COc1ccc(C(=O)O)cc1NS(=O)(=O)c1cccc2nsnc12	-10%
CC1(C)N(O)CC(c2cccs2)=[N+]1[O-]	-7%
CN(Cc1ccccc1)c1oc(-c2ccco2)nc1C#N	6%
c1ccc(-n2ncc3c(NCc4ccco4)ncnc32)cc1	-18%
Cc1ccc(-c2cc(C)nc3ncnn23)cc1	-4%
COc1ccc(CNc2cc(-c3cccnc3)ncn2)c(OC)c1	26%
CN1CCN(c2ncc3ncc(=O)n(CCC#N)c3n2)CC1	5%
COc1ccccc1-n1c(C)nc(=O)c(-c2ccccc2)c1C	1%

2 entries from above in another layout:
| structure | AmpC nodet inh |
| --- | --- |
| CNC(=O)c1ccc(N(Cc2ccccc2)S(C)(=O)=O)cc1 | 7% |
| c1ccc(-n2ncc3c(NCc4ccco4)ncnc32)cc1 | -18% |

Returning to the listing, starting 5 compounds before the break.
SMILES	AmpC nodet inh
c1ccc(-n2ncc3c(NCc4ccco4)ncnc32)cc1	-18%
Cc1ccc(-c2cc(C)nc3ncnn23)cc1	-4%
COc1ccc(CNc2cc(-c3cccnc3)ncn2)c(OC)c1	26%
CN1CCN(c2ncc3ncc(=O)n(CCC#N)c3n2)CC1	5%
COc1ccccc1-n1c(C)nc(=O)c(-c2ccccc2)c1C	1%
COc1ccc(N2C(=O)CCC(C(=O)c3ccccc3)=C2C)cc1	40%
COc1cccc(-c2cncnc2NCc2ccc(OC)cc2OC)c1	83%
O=C1CC(c2ccccc2)c2cc(O)ccc2O1 (centres undefined)	-13%
Cc1ccccc1CS(=O)(=O)Cc1ccc(C(=O)NCC2CCCO2)o1 (centres undefined)	7%
CCCCOc1ccc(NC(=O)CSc2nnnn2C)cc1	9%
CCCC(=O)Nc1cccc(-c2cn3ccsc3n2)c1	-12%
CC(=O)Nc1cccc(-c2nnc(-c3ccccc3)o2)c1	24%
COc1ccc(CCNc2oc(-c3ccccc3OC)nc2C#N)cc1OC	56%
Cc1cc(C(=O)NCc2cc(C)n(C)n2)sc1-c1ccccc1	98%
CCc1cc2cc(C(=O)Nc3ccccc3F)sc2s1	-17%
Cc1noc(C)c1C(=O)N1CCC[C@@]2(CCN(C(=O)Nc3cccc(C#N)c3)C2)C1	-6%
COc1ccc(CCn2c(=N)c(C(=O)NCc3ccco3)cc3c(=O)n4cccc(C)c4nc32)cc1	20%
Cn1c(Cn2c(=O)sc3ccccc32)nnc1SCC(=O)N1CCN(c2ccccc2)CC1	59%
CCC(C)C(=O)Nc1nc2c(s1)C(=O)CC(C)(C)C2 (centres undefined)	4µM*[single pt active]
O=C(CCNc1cccc(C(F)(F)F)c1)c1ccco1	-6%
CCOc1cc(C(=O)Nc2nnc(C)s2)cc(OCC)c1OCC	67%
COc1ccc(OC(C)C(=O)N2CC(C)OC(C)C2)cc1 (centres undefined)	4%
CCOc1cc(C2CC(=O)NC3=C2C(=O)C(C(=O)OC)C(C)C3)cc(Cl)c1O (centres undefined)	-9%
O=[N+]([O-])c1nccn1C[C@H](O)CN1CCCCC1	-2%[5.75 µM]
COc1ccccc1-c1nc(C#N)c(N2CCN(Cc3ccccc3)CC2)o1	92%
CN(C)Cc1c[nH]c2nc[nH]c(=O)c12	4%[5.75 µM]
Cc1cc(NC(=O)CSc2nc3ccccc3n2CC(=O)N2CCCCC2)no1	-6%
CC(C)N(CCCNC(=O)CC1Oc2ccccc2NC1=O)Cc1ccccc1 (centres undefined)	4µM*[single pt active]
CCn1cc(C(=O)NCc2ccc(Cl)cc2)c(=O)c2cc(S(=O)(=O)N3CCOCC3)ccc21	4µM*[single pt active]
CN(C)C(=O)c1ccc(-c2cncnc2Nc2ccccc2)cc1	11%
(cont.)
SMILES	AmpC nodet inh
CNC[C@H](O)c1cccc(O)c1	-14%
COc1ccc(C(=O)Nc2ccccc2NC(=O)c2ccco2)cc1OC	-4%
CCOc1ccc(NC(=O)CN(C)CC(=O)NC2CCCc3ccccc32)cc1OCC (centres undefined)	112%
CCC(CC)C(=O)Nc1cccc(-c2nc3ccccc3o2)c1	47%
O=C(Cn1nnc(-c2cccs2)n1)N1CCc2ccccc2C1	-7%
COc1ccc(NC(=O)CCS(=O)(=O)c2cccc3nonc23)c(OC)c1	1%
CC(=O)c1ccc(N2C(=O)[C@@H]3C(CCC(N)=O)NC4(C(=O)Nc5c4ccc(Cl)c5C)[C@@H]3C2=O)cc1 (some centres undefined)	63%
CCOC(=O)c1sc(NC(=O)CNC(=O)Cn2cnc3sc(C)c(C)c3c2=O)nc1C	26%
Oc1c(Cl)ccc(Cl)c1Cl	-6%
COc1cccc(Cn2c(=O)cnc3cnc(N4CCN(C)CC4)nc32)c1	50%
COc1ccc(C(=O)/C(C)=N/O)cc1OC	0%
COc1ccc(S(=O)(=O)N(CC(=O)NC2CC2)C2CCCCC2)cc1Cl	67%
Cc1ccc(C(=O)Nc2c3c(nn2C(C)(C)C)CS(=O)(=O)C3)cc1C	4%
Cn1c(C(=O)NCc2cccnc2)cc2sccc21	-14%
FC(F)(F)c1cc(-c2ccco2)nc(NCc2cccs2)n1	-16%
CCN(CCCNC(=O)C1CCN(S(=O)(=O)N2CCOCC2)CC1)c1cccc(C)c1	116%
CC1CN(C(=O)CCn2c(=O)oc3ccccc32)CC(C)O1 (centres undefined)	-1%
COc1cc(-c2ccccc2)nc(N)n1	6%
CCCCN(CCCNC(=O)C1CCN(S(=O)(=O)N2CCOCC2)CC1)c1ccccc1	115%
Cc1cc(NC(=O)CN2CCN(Cc3ccccc3)CC2)nc2c1c(=O)oc1ccccc12	22%
O=C(NC1(C(F)(F)F)N=C2SCCN2C1=O)c1ccco1 (centres undefined)	2%
Cc1cccc(NC(=O)CCN2C(=O)c3ccccc3C2=O)n1	8%
CCS(=O)(=O)N1CCCC(c2nc(-c3cccc(OC)c3)no2)C1 (centres undefined)	59%
O=C(CSc1n[nH]c(-c2ccccc2)n1)NC(=O)NCc1ccco1	?
CCOc1cc(C(=O)Nc2ccccc2N2CCN(S(C)(=O)=O)CC2)cc(OCC)c1OCC	86%

Among those listed so far, these have a Cl atom:
SMILES	AmpC nodet inh
Cc1ccc(Cl)cc1N1CCN(Cc2nnnn2Cc2ccco2)CC1	73%
Cc1oc(-c2ccc(Cl)cc2)nc1CS(=O)CC(=O)NCCN1CCCC1 (centres undefined)	4µM*[single pt active]
CC(C)N(Cc1nnc(-c2ccccc2Cl)o1)C(=O)c1cccc(C#N)c1	48%
COCCCNC(=O)CCc1nc(-c2ccccc2Cl)no1	10%
CCOc1cc(C2CC(=O)NC3=C2C(=O)C(C(=O)OC)C(C)C3)cc(Cl)c1O (centres undefined)	-9%
CCn1cc(C(=O)NCc2ccc(Cl)cc2)c(=O)c2cc(S(=O)(=O)N3CCOCC3)ccc21	4µM*[single pt active]
CC(=O)c1ccc(N2C(=O)[C@@H]3C(CCC(N)=O)NC4(C(=O)Nc5c4ccc(Cl)c5C)[C@@H]3C2=O)cc1 (some centres undefined)	63%
Oc1c(Cl)ccc(Cl)c1Cl	-6%
COc1ccc(S(=O)(=O)N(CC(=O)NC2CC2)C2CCCCC2)cc1Cl	67%

Continued:
SMILES	AmpC nodet inh
COc1ccc(N2CCN(c3cc(C)c4ccc(O)cc4n3)CC2)cc1	-5%
CCN(CC)C(=O)N1c2ccccc2CC(N(CC)CC)c2ccccc21 (centres undefined)	10%
O=S(=O)(c1ccc(Br)s1)N1CCN(c2ccccn2)CC1	3%
Cc1cc(Oc2ccccc2)nc(-c2ccccc2O)n1	-11%
O=S(=O)(NC1CCCC1)c1ccc(Br)s1	-6%
O=C(c1cnccn1)N1CCC2(CCCN(Cc3ccccc3)C2)CC1	12%
O=C(COc1cccc(-n2cnnn2)c1)NCCC1=CCCCC1	18%
C/C=C(\C)CN1CCN(c2ccccc2F)CC1	2%
CCOc1ccccc1-n1c(SCC(=O)Nc2nccs2)nnc1-c1ccoc1C	18%

Screening data as filed in PubChem BioAssay.
